Mtb bLac sens: beta-lactam sensitization of Mtb H37Rv. M. tuberculosis H37Rv growth with meropenem, percent inhibition; hits of this screen are not shown here. inhibition, % at 25 µM. 330,000 compounds, 0.27% hits;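 active = about 74% or more and at least 40 points above the plate without the antibiotic, then above 30% in a dose series; inconclusive = first-round hits that could not be retested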;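 also: growth measured after seven days incubation then overnight dye step; 0% = bacteria only wells and 100% = bacteria with antibiotic; twin plates without the antibiotic show which effects depend on it; some results filed as inactive read as strong as hits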
Mtb growth: M. tuberculosis H37Rv growth inhibitors, H37Rv strain (AID 1626); M. tuberculosis H37Rv growth inhibition; higher % means a stronger effect; one-dose inhibition, % at 10 µM; IC50 in µM for titrated hits; 220,000 compounds, 0.95% hits;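 active = confirmed in a dose series; inconclusive = inhibition above 80% but not taken into the dose series; inactive = below 80% or under 30% at every dose of the series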;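 also: bacteria incubated seven days before Alamar blue readout; 0% = bacteria only wells and 100% = bacteria with antibiotic wells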
Arbovirus inh: antivirals against arbovirus infection. arbovirus infection cell-based antiviral screen. inhibition, % at 10 µM. 200,000 compounds, 0.37% hits. AID 1251;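 active = inhibition from about 30%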;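 also: bluetongue infection of BSR cells; cell survival read as ATP light after 72 h; 0% = infected wells without compound and 100% = uninfected wells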
RecA intein inh: blocks M. tuberculosis RecA intein splicing. cell-free RecA intein splicing, fluorescence. inhibition, %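 (about 9 µM by stock and volumes)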. 290,000 compounds, 0.75% hits. AID 2221; in the data active = inhibition above about 30%; inconclusive = no clear call, values can overlap the other calls;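 also: 0% = vehicle wells and 100% = reference inhibitor control wells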
Target sequence (P9WHJ3 whole entry, looked up): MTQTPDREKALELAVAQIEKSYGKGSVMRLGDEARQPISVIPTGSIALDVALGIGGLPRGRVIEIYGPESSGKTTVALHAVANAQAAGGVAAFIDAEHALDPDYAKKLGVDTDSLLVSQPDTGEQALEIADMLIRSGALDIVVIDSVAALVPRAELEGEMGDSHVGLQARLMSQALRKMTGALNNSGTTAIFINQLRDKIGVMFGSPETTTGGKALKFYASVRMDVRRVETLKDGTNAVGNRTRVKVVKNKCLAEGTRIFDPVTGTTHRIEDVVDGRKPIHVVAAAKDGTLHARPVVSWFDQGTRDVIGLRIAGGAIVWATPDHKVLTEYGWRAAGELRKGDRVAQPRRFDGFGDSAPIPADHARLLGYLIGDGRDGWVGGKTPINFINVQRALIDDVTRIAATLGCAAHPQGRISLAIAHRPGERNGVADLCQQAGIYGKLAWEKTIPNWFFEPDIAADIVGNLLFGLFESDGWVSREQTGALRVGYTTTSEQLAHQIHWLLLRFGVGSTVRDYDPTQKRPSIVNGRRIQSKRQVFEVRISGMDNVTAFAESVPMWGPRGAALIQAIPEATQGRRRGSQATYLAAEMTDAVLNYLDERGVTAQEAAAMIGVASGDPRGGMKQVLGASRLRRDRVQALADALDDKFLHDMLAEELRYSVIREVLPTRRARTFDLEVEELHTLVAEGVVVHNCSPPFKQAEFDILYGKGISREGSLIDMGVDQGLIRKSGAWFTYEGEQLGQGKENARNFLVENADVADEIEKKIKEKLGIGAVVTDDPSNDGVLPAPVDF
YopH PTP inh: blocks Yersinia enterocolitica YopH tyrosine phosphatase; fluorescence Ex485/Em525; inhibition, %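 (about 10 µM by stock and volumes)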; 140,000 compounds, 0.16% hits; AID 898;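 active = inhibition of 50% or more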;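 also: controls were vehicle for no effect and minimum signal wells for full effect; inactives centre near -20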
Arbovirus inh repeat: further read-out of Arbovirus inh, marked with its call; inhibition, %; measured here: 10K subset replicate screen; many hits read low in the repeat;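 first of two repeat runs on a subset; 0% = infected and 100% = uninfected wells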
* marks the source's active call; other numbers are inactive results; ? = inconclusive; · = no result given. Some of the compounds tested; rates above refer to the full screens.

SMILES	Mtb bLac sens	Mtb growth	Arbovirus inh	RecA intein inh	YopH PTP inh	others
COCCNC(=O)CN1C(=O)NC2(CCCCCC2)C1=O	-6	0%	7	-2.7	·
O=C(CCn1c(=O)sc2ccccc21)Nc1cccnc1	-8	-4%	14	-0.2	-27
CCCCn1c(O)c(C=NCCCN(C)C)c(=O)[nH]c1=O	1	7%	10	-0.7	-13
CCN(CC(=O)Nc1ccc(NC(C)=O)cc1)C(=O)c1cccc(S(=O)(=O)N2CCc3ccccc3C2)c1	-18	·	·	1.6	·
Nc1sccc1C(=O)c1ccccc1	14	2%	-4	-1.9	-5
CCCCSc1nc(N)c(C#N)c(-c2cccs2)c1C#N	·	13%	-8	-1.0	-46
COc1ccc(CN2CCC(C(=O)c3cccc(Cl)c3)CC2)cc1	1	·	·	-3.4	·
Cc1ccc(-n2ncc3c(=O)n(-c4ccc(C)c(C)c4)c(C)nc32)cc1	3	14%	-5	-0.3	-23
CCN(CC(=O)Nc1ccc(C)c(S(=O)(=O)N(C)C)c1)Cc1ccccc1	-4	·	·	3.7	·
Cc1ccc(-c2nnc(CSc3nnc(COc4cccc5ccccc45)n3-c3ccccc3)o2)cc1	15	·	-15	13	-2
CN(C)S(=O)(=O)c1cccc(NC(=O)CSc2ncnc3ccccc23)c1	-1	9%	·	4.8	·
CCCCn1c(N)c(N(CC(C)C)C(=O)C2CC(=O)N(c3ccc(CC)cc3)C2)c(=O)[nH]c1=O (configuration not stated)	-17	·	·	-0.4	·
O=C(Nc1ccc(-c2cnco2)cc1)c1ccccc1	-6	3%	·	1.0	·
Cc1cc(-c2ccccc2)n2ncnc2n1	3	-12%	·	-0.3	·
Cn1c2ccccc2c2cc(/C=N/NC(=O)c3ccc(O)cc3O)ccc21	15	·	·	-3.9	·
COC(=O)C1=C(C(=O)c2ccccc2)C(c2ccccc2)n2nnnc2N1 (configuration not stated)	0	8%	1	0.3	·
O=C(CN1CCOCC1)NCc1cc([N+](=O)[O-])ccc1O	3	·	·	2.1	·
CCN(CC)C(=O)C1CCC(CNS(=O)(=O)c2cccc3cccnc23)CC1 (configuration not stated)	3	-12%	-6	·	-21
CCCN1CCN(CCCNC(=O)CN2C(=O)c3cccnc3Oc3ccc(Cl)cc32)CC1	?	·	·	-2.0	·
O=C(CCC(=O)N1CCOCC1)Nc1nnc(C2CCCCC2)s1	2	-10%	7	-1.2	2
CN1C(=O)C(CC(=O)NC2CCCCC2)SC1=Nc1ccccc1 (configuration not stated)	6	0%	1	-1.0	-24
O=C1CN(S(=O)(=O)c2cc(Cl)ccc2Cl)CCN1	-7	-1%	-3	-6.8	·
NC(=O)c1ccc2c(=O)n3c(-c4cccs4)csc3nc2c1	-13	-3%	·	-3.5	·
CCCCCC(=O)Cc1cc(O)cc2c1C(=O)Oc1cc(O)c(C(=O)O)c(CCCCC)c1O2	-5	-8%	·	66*	·
O=C(c1cc(-c2cccc(Cl)c2)on1)N1CCCC1	2	·	·	-1.2	·

Reprinted at random: 3 entries already listed, in no set order.
SMILES	Mtb bLac sens	Mtb growth	Arbovirus inh	RecA intein inh	YopH PTP inh	others
CN1C(=O)C(CC(=O)NC2CCCCC2)SC1=Nc1ccccc1 (configuration not stated)	6	0%	1	-1.0	-24
CCN(CC)C(=O)C1CCC(CNS(=O)(=O)c2cccc3cccnc23)CC1 (configuration not stated)	3	-12%	-6	·	-21
O=C(CCC(=O)N1CCOCC1)Nc1nnc(C2CCCCC2)s1	2	-10%	7	-1.2	2

Returning to the listing with the three entries that preceded the break.
SMILES	Mtb bLac sens	Mtb growth	Arbovirus inh	RecA intein inh	YopH PTP inh	others
NC(=O)c1ccc2c(=O)n3c(-c4cccs4)csc3nc2c1	-13	-3%	·	-3.5	·
CCCCCC(=O)Cc1cc(O)cc2c1C(=O)Oc1cc(O)c(C(=O)O)c(CCCCC)c1O2	-5	-8%	·	66*	·
O=C(c1cc(-c2cccc(Cl)c2)on1)N1CCCC1	2	·	·	-1.2	·
N#Cc1c(-c2ccco2)c2c([nH]c1=S)CCCC2	-4	5%	7	-4.7	·	Arbovirus inh repeat=9
COc1cc(OC)c(OC)cc1/C=C1/Cc2ccccc2C1=O	9	·	·	0.0	·
CCOc1ccc2nc(NC(=O)C34CC5CC(CC(NC(C)=O)(C5)C3)C4)sc2c1	98	·	·	-0.5	·
CCc1ccc(OC(C)C(=O)Nc2ccccc2C(=O)N2CCOCC2)cc1 (configuration not stated)	0	·	·	1.7	·
NC(=O)c1ncc(C(F)(F)F)cc1Oc1cccnc1	2	-4%	11	-0.1	·
Cc1cc2nn(-c3cccc4ccccc34)nc2cc1N	51	-7%	-9	-1.6	-30
Cc1cc(C)cc(NC2=NCC(=O)N2Cc2ccccc2)c1	-10	-3%	-3	4.0	-4
CCOC(=O)c1ccc(NC(=O)CC2COc3ccccc3O2)cc1 (configuration not stated)	97	?	15	-0.7	-23
O=C(O)CC(NC(=O)C12CC3CC(CC(C3)C1)C2)c1cccc(Cl)c1 (configuration not stated)	-4	·	·	0.1	·
O=C(COC(=O)c1ccc2c(c1)S(=O)(=O)c1ccccc1C2=O)NC1CC1	-2	-6%	-1	-1.7	·
COc1cc(CN2CCN(c3cc(C)ccc3C)CC2)ccc1O	-8	1%	-39	-0.6	17
COc1ccc2c(c1)cc(C(=O)N[C@H](C(=O)N1CCC[C@H]1C(=O)O)C(C)C)n2C	-1	·	·	5.4	·
CCN1C(=O)/C(=C2/Sc3ccccc3N2CC)S/C1=N\c1ncn[nH]1	90	12%	-14	-41	·
CCOC(=O)c1c(CSc2ccc(C)cc2)n(C)c2cc(Br)c(O)c(CN(C)C)c12	77	0%	19	27	·
Cc1ccn2cc(C34CC5CC(CC(C5)C3)C4)nc2c1	0	-1%	18	2.6	·
O=C(NCCCn1ccnc1)C(F)(F)C(F)(F)C(=O)NCCCn1ccnc1	-4	-9%	1	0.3	-7
COc1ccccc1/C=C/C=N/n1c(-c2ccc(C)cc2)n[nH]c1=S	2	16%	-1	-3.1	-13
COc1cc(S(=O)(=O)N2CCOCC2)c(OC)c(S(=O)(=O)N2CCOCC2)c1	-5	-3%	·	-2.1	4
COc1c2ccoc2c(OC)c2oc(=O)ccc12	-5	-10%	·	0.0	·
CCOC(=O)N1CCN(C(=O)c2ccc3nc(N4CCC(C)CC4)sc3c2)CC1	6	7%	0	0.6	-53
CC(=O)NC1c2ccccc2C(=O)N1Cc1ccccc1 (configuration not stated)	4	·	·	-3.9	·
CCOc1ccc(Cc2n[nH]c(=S)n2N)cc1	-1	13%	-2	0.3	-44
CN(C)c1nc(N(C)C)nc(N2CC(CCl)OC2=N)n1 (configuration not stated)	-5	-4%	0	-6.1	·
Cc1ccc(NC(=O)CSc2nsc(SCC(=O)Nc3ccc(C)cc3C)c2C#N)c(C)c1	-1	3%	5	2.7	-13
O=C(O)c1ccc(CNC(=O)c2ccccc2NC(=O)c2cccc([N+](=O)[O-])c2)cc1	0	-2%	8	-0.7	·

Brought forward from above: two compounds, then new ones.
SMILES	Mtb bLac sens	Mtb growth	Arbovirus inh	RecA intein inh	YopH PTP inh	others
Cc1ccc(NC(=O)CSc2nsc(SCC(=O)Nc3ccc(C)cc3C)c2C#N)c(C)c1	-1	3%	5	2.7	-13
O=C(O)c1ccc(CNC(=O)c2ccccc2NC(=O)c2cccc([N+](=O)[O-])c2)cc1	0	-2%	8	-0.7	·
O=C(N/N=C/c1cccnc1)c1cc(-c2cccs2)nc2ccccc12	-3	6%	-13	-1.1	-21
CSc1ccccc1NC(=O)COC(=O)c1c[nH]c(=O)[nH]c1=O	0	-1%	·	0.2	·
CCOc1cc(CNn2cnnc2SCC(=O)NC(C)(C)C)ccc1OCC(=O)NC(C)(C)C	0	7%	0	-0.9	·
COC(=O)c1c(N2C(=O)Nc3ccccc3N2O)sc(C)c1C	-4	-6%	2	0.4	·
COc1ccc(/C=N/NC(=O)c2nnn(-c3nonc3N)c2-c2cccc(OC)c2)cc1	8	·	·	-1.9	·
CCOC(=O)Cc1csc(SCc2nc3sc4c(c3c(=O)[nH]2)CCC4)n1	-19	-11%	-1	·	-49
COc1ccc(COc2cc(-c3cccc(OC)c3)nc3ccc(NC(=O)c4ccccc4)cc23)cc1	98	17%	-26	-0.5	-30
COCCn1c(SCC(=O)Nc2ncc(Cl)c(C)c2Cl)nc2ccccc21	-2	0%	-3	3.4	-45
CCNC(=O)COc1ccc(F)cc1C(=O)c1cnn(-c2ccccc2)c1	2	·	·	-4.0	·
O=C(Nc1nc2cc3c(cc2s1)OCO3)c1cccc(N2C(=O)CCC2=O)c1	-7	-12%	·	-38	·
CC1CCN(c2ccc(NC(=O)c3cccnc3Cl)cc2)CC1	1	1%	4	-0.8	·
CC(=O)c1c(C)[nH]c(C(=O)N2CCN(c3ccccn3)CC2)c1C	-8	·	·	1.5	·
O=C1c2ccccc2NC(c2ccc3c(c2)OCO3)N1O (configuration not stated)	5	0%	-20	-0.6	-27
Cc1ccc(OCC(=O)NCCNC(=O)c2ccc(C)nc2)cc1	-6	·	·	-0.4	·
CC(=O)Nc1nc(-c2ccc(Cl)cc2)ns1	0	-2%	19	1.6	-14
O=C(COC(=O)c1ccc[nH]c1=O)Nc1ccc(S(=O)(=O)N2CCCC2)cc1	1	-6%	·	-1.5	·
COc1ccc(-c2nn(-c3ccccc3)cc2/C=N/NC(=O)c2cccc(S(=O)(=O)Nc3ccccc3OC)c2)cc1	3	12%	-14	4.6	-35
N#Cc1cc(N)ccc1Sc1ccc(Cl)cc1	-2	3%	-10	6.6	-29
Cc1ccc(NC(=O)C2CCCN(C(=O)c3ccc(Cl)cc3)C2)cc1 (configuration not stated)	-1	7%	9	0.9	·
O=C(O)/C(=C\c1cn(-c2ccccc2)nc1-c1cccnc1)NC(=O)c1ccccc1	-4	-15%	·	-3.0	·
O=C1CCc2cc(NS(=O)(=O)c3cc(F)ccc3F)cc3c2N1CC3	-2	·	·	-4.0	·
CNS(=O)(=O)c1ccc(NC(=O)c2cnn3c(C(F)F)cc(-c4ccccc4)nc23)cc1	3	6%	-26	-0.1	·
CC1CCCN(S(=O)(=O)c2ccc(S(=O)(=O)N3CCC4(CC3)OCCO4)cc2)C1 (configuration not stated)	3	5%	7	2.7	10
C=C(C)c1cccc(C(C)(C)NC(=O)NCC2COCCO2)c1 (configuration not stated)	1	-2%	-3	-1.7	-31
CCOC(=O)c1c(CSC(=N)N)n(-c2ccccc2)c2cc(Br)c(OC(C)=O)cc12	12	-1%	·	48*	·
Next compounds:
SMILES	Mtb bLac sens	Mtb growth	Arbovirus inh	RecA intein inh	YopH PTP inh	others
Cc1cc(C)cc(NC(=O)C2CCCN(c3ncccn3)C2)c1 (configuration not stated)	-8	·	·	-1.0	·
COc1ccc(Cn2nnnc2C(CC(C)C)N2CCC(C(N)=O)CC2)cc1 (configuration not stated)	-4	-1%	-4	-1.0	·
COc1ccc(NCc2ccccc2[N+](=O)[O-])cc1OC	3	4%	-11	7.7	-9
COC(=O)[C@@]12CCCN1[C@H](c1ccc(-c3ccc(OC)cc3)cc1)[C@@H]1C(=O)N(C)C(=O)[C@@H]12	11	·	·	0.1	·
Cc1nc2ccccc2n1CC(=O)NC1CCCCCC1	-5	-1%	·	-0.2	·
Cc1cc(C)cc(OCC(=O)NN2C(=O)c3ccccc3C2=O)c1	3	-11%	1	-0.3	-23
COc1cc(S(=O)(=O)NC(Cc2c[nH]c3ccccc23)C(=O)O)ccc1NC(C)=O (configuration not stated)	1	·	·	2.1	·
Cc1ccc(CNC(=O)CSc2nc3ccsc3c(=O)n2Cc2ccc(C(=O)O)cc2)cc1	14	11%	2	-0.9	·
O=C(CCCN1C(=O)/C(=C/c2cccc(Br)c2)SC1=S)N1CCOCC1	-7	·	·	1.2	·
COc1ccc(Cn2c(=O)cc(C)[nH]c2=S)cc1	-6	2%	-1	-0.3	·
O=C(NCc1ccccc1)/C(NC(=O)c1ccccc1)=C(/Sc1ccccn1)c1ccccc1	-8	0%	-11	-3.5	-11
O=C(Nc1ccccc1)c1ccc(NCc2ccco2)c(S(=O)(=O)N2CCOCC2)c1	-3	-5%	-5	·	-5
O=C(c1ccccc1Cc1ccccc1)N1CCN(S(=O)(=O)c2ccccc2[N+](=O)[O-])CC1	3	·	·	-1.7	·
CCOC(=O)CC1(NC(=O)C2CCC(=O)N(C3CC3)C2)CCCCC1 (configuration not stated)	-3	·	·	1.0	·
O=C(O)CSc1ncnc2scc(-c3ccccc3)c12	-5	-7%	·	1.6	·
CN(CCC#N)C(=O)COC(=O)c1ccc(Cl)cc1O	4	-2%	1	-3.8	·
CCOc1ccccc1-c1c2cc(O)c(=O)cc-2oc2cc(O)c(O)cc12	·	·	-8	·	14
CC(Sc1nnc(C2CC2)n1N)C(=O)NC1CCCCC1C (configuration not stated)	-12	·	·	1.2	·
